# Screens: PubChem BioAssay, several laboratories
# rRNA inh HTS: inhibitors of bacterial rRNA selective over humanized ribosomes. E. coli WT GFP vs humanized-ribosome RFP mutants, fluorescence, 24 h; active compounds read low; DMSO median 0, no signal -100. GFP signal change (wild-type ribosome), % (concentration not given with the values). actives 1.6% (n = 350,000). AID 720706;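 active = significant combined selectivity score with lowered wild-type GFP, culture density cut under 30%, mutant RFP and density less affected; inactive = any of these conditions unmet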; also: one replicate is shown; some compounds called inactive have numbers as strong as hits
# Beta cell apopt: beta cell apoptosis inhibition; actives 0.8% (n = 300,000); protection from apoptosis, % (test concentration not listed); INS-1E cytokine-induced death, ATP luminescence, 48 h; percent of positive-control rescue, neutral wells zero; AID 435005;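 active = all replicates at 75% or more, or half of them and the mean; inconclusive = half reach 75% but not the mean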;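 also: 0% = cytokine-treated negative control wells and 100% = positive control rescue; higher means more ATP so stronger rescue from cytokine killing; wells of about 40 µL received 100 nL stock; the first replicate is given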
# RanGTP-Impb inh: inhibitors of RanGTP-importin-beta interaction, primary screen, biochemical, FRET, CFP-Ran, YFP-importin-beta, homogeneous; inhibition, % (test concentration not listed); actives 1.1% (n = 300,000); cell-free CFP-Ran/YFP-importin-beta FRET ratio;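 active = most replicates above 15%; inconclusive = exactly half above 15%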;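 also: 0% = DMSO wells and 100% = Ran loaded with GDP instead of GTP; wells of about 40 µL received 100 nL stock; the first replicate is given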
# Calb FLC: affects C. albicans growth with fluconazole; C. albicans CaCi-2 (fluconazole-resistant clinical isolate) + fluconazole, Alamar Blue growth, 48 h; growth inhibition, % (concentration not given with the values); actives 0.57% (n = 300,000);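 active = most replicates above 75%; inconclusive = exactly half above 75%; inactive = most below 75%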;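 also: all wells also contain fluconazole at 8 µg/ml as a sub-toxic cotreatment; 0% = median of DMSO wells and 100% = median of geldanamycin control wells; wells of about 8 µL received 7.5 nL stock; the first replicate is given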
# Vif A3G: HIV-1 Vif–A3G interaction blockers – biochemical, TR-FRET, GST-Vif 1-94, biotin-A3G peptide, dose response retest, primary screen (AID 1117319). TR-FRET GST-Vif / biotin-A3G peptide binding; higher % means a stronger effect; test concentration not given here; strong numbers were not always called active. inhibition, %; hits with a dose series show IC50 in µM. actives 0.57% (n = 260,000);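 active = above the screen mean plus three standard deviations and confirmed in dose response; inconclusive = results disagree or hit not tested in dose response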;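 also: Vif residues 1-94 fused to GST binding biotinylated APOBEC3G peptide 110-148; 0% = full assay without inhibitor and 100% = GST in place of GST-Vif; retest series ran down from 100 µM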
# Bfl-1 A1 inh: inhibitors of the anti-apoptotic protein A1, read as caspase activation; MEF A1-2A-BIM cells, Caspase-Glo 3/7 luminescence, 3 h; percent of clofoctol response, vehicle zero; caspase activation, % (no concentration beside the values); actives 0.066% (n = 330,000); AID 2462;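 active = over half of replicate activation scores above 10%, or exactly half above 10 with the replicate mean above 10; inconclusive = replicate mean below 10 yet half the replicates above 10; inactive = over half of replicates below 10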;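 also: wells of about 30 µL received 50 nL stock; many hits fall short of the cut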
# T cruzi repl: T. cruzi replication inhibition. AID 1885. inhibition, % (no concentration beside the values). actives 1.4% (n = 300,000). T. cruzi beta-gal in NIH3T3, luminescence, 90 h;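 active = mean inhibition across valid replicates above about 55%, limit read from the data; inconclusive = mean below that limit but half or more replicates reach it; inactive = mean below it, under half of replicates reach it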;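 also: signal also drops with host cell toxicity which is not excluded here; 0% = plate median of DMSO wells and 100% = zero luminescence signal; higher percent means less beta-gal luminescence so fewer parasites; stock transfer was 50 nL into about 50 µL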
# AF4-AF9 inh: blocks AF4 peptide binding to human AF9 | AlphaScreen, biotin-AF4 peptide binding to FLAG-AF9 | inhibition, % at 10 µM | actives 0.47% (n = 350,000) | AID 651704;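 active = every replicate reaching a set inhibition limit, whatever the replicate mean, cut at about 25% in these data; inconclusive = mean inhibition reaches that limit but some replicates miss it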;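 also: 0% = plate neutral control median and 100% = total signal loss; the record names both 10 and 1 µM as test concentration; the first replicate is given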
# Target sequence (P42568 whole entry, looked up): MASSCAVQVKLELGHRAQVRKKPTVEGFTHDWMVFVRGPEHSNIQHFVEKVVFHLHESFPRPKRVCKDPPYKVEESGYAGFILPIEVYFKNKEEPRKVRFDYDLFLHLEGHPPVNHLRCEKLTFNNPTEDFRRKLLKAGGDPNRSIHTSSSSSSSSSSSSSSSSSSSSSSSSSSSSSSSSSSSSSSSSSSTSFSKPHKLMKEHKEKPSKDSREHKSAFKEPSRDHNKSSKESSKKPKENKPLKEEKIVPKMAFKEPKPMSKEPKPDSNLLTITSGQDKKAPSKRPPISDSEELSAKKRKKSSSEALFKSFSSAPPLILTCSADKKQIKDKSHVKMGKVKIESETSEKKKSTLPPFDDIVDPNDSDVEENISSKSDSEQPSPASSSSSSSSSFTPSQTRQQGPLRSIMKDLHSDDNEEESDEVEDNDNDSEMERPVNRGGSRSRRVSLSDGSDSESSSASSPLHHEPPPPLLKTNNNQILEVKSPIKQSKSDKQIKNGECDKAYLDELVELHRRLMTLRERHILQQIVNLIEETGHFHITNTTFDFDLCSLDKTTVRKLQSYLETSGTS
# rRNA inh HTS OD600: also measured in rRNA inh HTS; calls as there; OD600 change, %; measured here: OD600 growth;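 optical density of the mix in the first replicate; 0 = DMSO median and -100 = no signal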
# rRNA inh HTS RFP: also measured in rRNA inh HTS; calls as there; RFP signal change, %; measured here: RFP humanized mutant strains;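 first replicate; 0 = DMSO median and -100 = no signal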
# An asterisk follows results filed as active; ? = inconclusive; nt = no result given.
SMILES,rRNA inh HTS,rRNA inh HTS OD600,rRNA inh HTS RFP,Beta cell apopt,RanGTP-Impb inh,Calb FLC,Vif A3G,Bfl-1 A1 inh,T cruzi repl,AF4-AF9 inh
Cn1cc(C(=O)Nc2ccc(Cl)c(Cl)c2)cn1,-14,-16,-2.2,0,1.6,-19,nt,-0.5,-22,3.7
NCCCC[C@H]1CNC(=O)C(=O)N1CCCCC1CCCCC1,12,4,0.6,-7,2.5,-8,nt,0.5,-2,5.9
CCOc1ccc2nc(N3C(=O)CNC3=S)sc2c1,-4,-1,2.3,20,-5.8,-4,1%,-3.5,-36,0.3
Cc1cccc(N(CC(=O)NCCSc2nc3ccccc3s2)S(=O)(=O)c2ccccc2)c1,nt,nt,nt,5,-2.4,-9,nt,0.5,39,nt
CN(C)CCNc1ncnc2c1sc1nc(-c3ccccc3)c3c(c12)CCCC3,-59,-80,-22,13,1.9,16,65%,-0.5,46,?
COc1cc2[nH]c(C(=O)NCC3CCCO3)cc2c(OC)c1OC (centres undefined),14,18,1.3,0,-3.3,3,8%,0.4,-11,-2.9
O=S(=O)(CC(O)CS(=O)(=O)c1ccc(Cl)cc1)c1ccccc1 (centres undefined),-1,-1,-2.8,-4,-0.3,-2,21%,-0.3,-23,-1.2
COc1cccc(CN2CC(C(=O)N(C)CCc3ccccc3)CCC2=O)c1 (centres undefined),3,12,1.6,-2,0.4,9,-3%,-0.5,0,1.2
Cc1c(Cl)cccc1NC(=O)c1nc(C)n(-c2cc(OC(C)C)c(Cl)cc2Cl)n1,nt,nt,nt,-15,1.9,9,1%,-0.2,56*,nt
CCN(CC)CCNC(=O)c1sc2ncn(CC(=O)Nc3ccc(C)c(Cl)c3)c(=O)c2c1C,3,-8,-2.1,-4,1.6,1,0%,0.7,-6,7.0
Oc1ccc[n+](/C=C\c2ccccc2)c1,10,9,-2.4,1,2.8,-1,nt,1.1,-16,-2.3
O=C1CNC(=S)N1CCc1ccc(Cl)cc1,-1,5,14,nt,7.1,-4,3%,-0.4,-8,-1.4
O=S(=O)(c1ccc(Cl)cc1)N1CCCC1c1nc(-c2cccc(Cl)c2)no1 (centres undefined),nt,nt,nt,1,-0.2,-2,7%,0.4,17,nt
CCCN(CCC)C(=O)CCSCCC(=O)N(CCC)CCC,nt,nt,nt,-9,-0.4,5,-15%,0.4,-10,-13
COc1ccccc1NS(=O)(=O)c1cc(NC(=O)COc2ccccc2)ccc1N1CCOCC1,2,-2,3.1,35,nt,nt,-10%,1.1,nt,1.1
COC(=O)c1cc(C(=O)OCC(=O)NNC(=O)c2cccs2)cc([N+](=O)[O-])c1,-2,8,-5.0,0,-0.2,2,-8%,-0.3,4,-22
COc1ccc(OC)c(C(=O)/C=C/c2ccccc2C(F)(F)F)c1,nt,nt,nt,-6,?,10,-1%,0.7,34,nt
O=C(CCCN1C(=O)/C(=C/c2ccccc2)SC1=S)Nc1ccc(C(=O)O)c(O)c1,-15,-9,-2.2,-4,0.9,-3,nt,-3.1,-1,4.9
CC(=O)c1cccc(NC(=O)COC(=O)c2ccccn2)c1,2,2,-2.2,-2,1.1,-6,nt,1.5,-11,2.7
COc1ccc(C2=NN(C(=O)CSc3nnc(-c4ccccc4F)o3)C(c3ccco3)C2)cc1 (centres undefined),nt,nt,nt,7,4.9,6,nt,0.3,22,nt
COc1ccc(Nc2nnc(SCC3CCCO3)s2)cc1 (centres undefined),-13,-1,-3.1,-4,-3.0,14,8%,-1.8,-14,-1.3
CCOC(=O)CSc1nc(C)c2ccc(C)cc2n1,nt,nt,nt,-8,2.5,6,nt,0.8,9,nt
CC(=O)c1cccc(NC(=O)/C(=C/c2ccco2)NC(=O)c2ccco2)c1,49,2,10,-4,1.9,0,3%,1.8,-5,0.6
COc1ccc(C2C(C(=O)c3ccc(C)o3)=C(O)C(=O)N2Cc2ccco2)cc1OC (centres undefined),4,3,-1.9,-6,6.6,3,13%,0.2,-14,0.1
CCn1cc(C(=O)N[C@H](C(=O)NCCO)C(C)C)c(=O)c2cc3c(cc21)OCO3,9,16,6.5,0,0.5,10,-12%,1.2,-6,0.0
c1ccc(Oc2nc3ccccc3n3cccc23)cc1,nt,nt,nt,4,3.2,-2,5%,-0.1,-8,nt
COc1ccc(NC(=O)Nc2ccc(Br)cn2)cc1OC,-4,3,-4.8,-14,0.6,2,-4%,0.2,-3,nt
Cc1ccc(-n2c(=O)cc(N3CCC(C)CC3)[nH]c2=O)cc1,nt,nt,nt,7,1.7,22,?,-1.9,-32,nt
O=C(/C=C/c1ccc(N2CCOCC2)cc1)c1ccccc1,2,12,1.6,-4,-102,-22,-9%,-1.9,7,-0.7
NS(=O)(=O)c1ccc(NC(=O)c2ccc(CNS(=O)(=O)c3cc(C(F)(F)F)ccc3Cl)cc2)cc1,-9,0,-1.5,-11,1.0,-2,-13%,1.0,-5,-2.3
CCOc1ccc(NC(=O)/C=C/c2ccccc2)c([N+](=O)[O-])c1,19,10,-3.3,1,-15,9,nt,-0.1,-16,2.9
O=C(Nc1cccc(F)c1)N1CCCC(CNS(=O)(=O)Cc2ccccc2)C1 (centres undefined),-10,-6,-1.9,-4,-4.8,4,24%,-0.3,-3,0.5
COC(CNC(=O)c1ccc2c3c(onc13)-c1ccccc1C2=O)OC,nt,nt,nt,58,-59,-3,?,-0.8,0,4.1
COc1cc(/C=N/NC(=O)c2cccc([N+](=O)[O-])c2)ccc1OCc1ccc(C)cc1,nt,nt,nt,nt,-2.2,3,0%,-1.4,3,nt
CC[N+]1(CC)CC2=Cc3ccccc3CC2C1 (centres undefined),20,9,1.0,-1,4.2,-19,?,0.2,-15,0.7
CC(C)(C)CC(=O)Nc1nn[nH]n1,14,8,2.6,-2,-0.1,-15,nt,0.2,-11,-4.0
COc1ccccc1C(=O)NC(=O)OCCn1c(C)cnc1[N+](=O)[O-],-11,-2,-1.3,-2,1.9,-4,-7%,0.7,10,-0.6
O=C(OCc1nnc(-c2ccccc2)o1)c1cccc(S(=O)(=O)N2CCOCC2)c1,0,-1,-0.6,0,-0.9,-7,-1%,-0.2,-10,3.2
OCC1(CC2CCCCO2)CCN(Cc2nc3ccccc3[nH]2)CC1 (centres undefined),2,6,0.7,-4,?,?,nt,0.8,6,-7.7
Cc1ccc(NC2=C(Cl)C(=O)OC2OC(C)C)cc1 (centres undefined),-6,-10,-4.0,6,4.5,-22,-6%,-0.1,-8,0.5
O=S(=O)(c1cccc2cccnc12)N1CCCCC1,6,4,0.0,nt,4.0,22,-6%,0.0,-12,-2.0
COC(=O)[C@H](Cc1ccccc1)NC(=O)N1CCN(c2ccc(F)cc2)CC1,-20*,-9.1*,1.4*,-4,-2.0,1,2%,-0.3,7,nt
CC(C(=O)Nc1ccccc1-c1ccccc1)N1CCN(Cc2ccccc2)CC1 (centres undefined),-38,-71,-3.0,nt,3.0,-6,1%,0.6,18,-9.0
CCN(CC)S(=O)(=O)c1cccc(-c2nn(-c3ccccc3)cc2/C=C(\C#N)C(=O)NCc2ccco2)c1,nt,nt,nt,2,-0.2,1,-3%,0.2,15,nt
COc1ccccc1NC(=O)C1CCN(C(=O)NCc2ccccc2)CC1,3,3,-0.7,-3,1.8,-3,nt,0.7,-11,-1.7
Cc1nn(CCS(=O)(=O)c2ccc(Cl)cc2)c(C)c1Br,5,12,1.3,-4,4.2,3,4%,0.0,8,-1.6
O=[N+]([O-])c1ccc(-c2nc(C(Cl)Cl)c3ccccc3n2)cc1,0,2,0.2,94*,3.0,46,0%,1.2,31,-1.7
CCOC(=O)NC(NS(=O)(=O)c1ccccc1)(C(=O)OCC)C(F)(F)F (centres undefined),nt,nt,nt,-2,1.9,8,nt,-0.2,0,nt
O=C(NC1CCCCCC1)C1c2ccccc2C(=O)N1Cc1cccs1 (centres undefined),4,13,0.0,-10,1.8,-5,4%,-0.3,2,1.2
CC1CN(C(=O)CSc2nnc(-c3ccccc3)o2)CC(C)O1 (centres undefined),1,4,-0.5,0,-2.7,-9,nt,0.9,-7,-2.5
# Remaining list, next part
SMILES,rRNA inh HTS,rRNA inh HTS OD600,rRNA inh HTS RFP,Beta cell apopt,RanGTP-Impb inh,Calb FLC,Vif A3G,Bfl-1 A1 inh,T cruzi repl,AF4-AF9 inh
CC(=O)c1cccc(-c2ccc3c(=O)[nH]c(Nc4ccccc4)cc3c2)c1,0,4,-7.0,-1,22*,4,nt,2.1,3,-1.6
COc1cc(/C=N/NC(=O)CN(CCc2ccccc2)S(=O)(=O)c2ccc(NC(C)=O)cc2)cc(OC)c1OC,nt,nt,nt,7,2.2,-3,nt,-0.9,7,nt
CCOC(=O)CCNC(=O)N1CCCC(N(C)CCc2ccccc2)C1 (centres undefined),8,10,-3.4,1,0.2,1,nt,0.0,6,0.1
CCn1cc(Br)c(C(=O)NC(C)c2ccccc2)n1 (centres undefined),nt,nt,nt,nt,-0.6,?,0%,1.1,-2,nt
CNC(=O)c1c(NC(=O)c2ccc(S(=O)(=O)N(C)c3ccccc3)cc2)sc2c1CCN(C(C)C)C2,-5,-7,3.6,-4,2.9,-3,nt,-0.3,29,1.5
COc1ccc(CN2C(=O)NC3(CCCc4ccccc43)C2=O)cc1F (centres undefined),-30,-29,-4.8,-5,?,1,1%,0.6,-7,-0.1
COC(=O)/C(C#N)=C/c1c(N2CCN(c3cccc(Cl)c3)CC2)nc2c(C)cccn2c1=O,0,6,0.9,11,-6.1,14,2%,0.5,51,4.7
COC(=O)c1ccc(/C=N/N2CCN(Cc3ccc(Cl)cc3)CC2)cc1,-1,8,-2.8,3,2.5,-3,9%,0.8,-5,0.9
Cc1ccc(S(=O)(=O)N2CCOCC2)cc1NC(=O)CSc1nnc(C2CC2)n1C1CC1,4,10,1.5,-3,nt,nt,1%,-0.7,nt,-0.8
O=C(NS(=O)(=O)c1ccc(Cl)cc1)c1ccccc1,17,5,4.7,3,-1.3,-6,nt,-0.1,-11,-1.3
COC(C[C@H](O)[C@H](C)[C@H](O)COCc1ccccc1)OC,5,22,6.5,nt,1.9,26,nt,nt,-18,-2.7
COC(=O)c1ccc(NC(=O)c2cc[n+](Cc3ccccc3)cc2)cc1,-52,-46,-19,-7,0.0,-13,nt,1.3,-17,-1.1
O=C(Nc1ccc([N+](=O)[O-])cc1)N1CCCCC1,-5,-5,-5.0,6,-1.1,-3,7%,-0.6,-11,8.1
O=S(=O)(c1ccc(F)cc1)N1CCc2ccccc2C1,10,14,1.1,-5,3.7,-4,5%,1.6,11,-2.7

# An excerpt. The share of hits here may be higher or lower than overall.
